# Screening data from PubChem BioAssay.
# Rango-impB inh: inhibitors of Rango-importin beta complex formation | actives 0.031% (n = 340,000) | Potency, µM (top dose mostly 92.2 µM), inactives show at the top dose inhibition of complex formation | Q14974 | Rango CFP/YFP FRET sensor + importin beta, 45 min; active = rising FRET ratio curve, often small or poorly fitted; inconclusive = mostly compound fluorescence or quenching in the first reads; inactive = flat curves in all reads;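 note: potency is the fitted concentration of half-maximal effect; 0% = DMSO wells and 100% = buffer wells lacking importin beta; nearly all actives have a fitted effect of over 15% in size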
#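 FRET biosensor Rango (snurportin 1 IBB between N-terminal EYFP and C-terminal Cerulean), 50 nM in PBS/1 mM DTT/0.02% Tween-20/0.1% BSA, preincubated 5 min RT with compound; 0.125 microM importin beta added, 45 min RT, CFP/YFP FRET ratio read.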
# miR-21 FLuc: raises the signal of a miR-21 reporter. HeLa miR-21 FLuc reporter, luciferase, 48 h. Potency, µM (titrated, usually from 38.3 µM), for the others: at the top dose reporter change, positive = more light. 340,000 tested, under 10 active. AID 2288; active = well fitted rising curve with a large enough effect; inconclusive = small, poorly fitted or top-dose-only effect; inactive = no such curve, though single readings can be large or run the other way;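 note: % of control where 0% means no effect; miR-21 action dims this reporter so a rising signal means less miR-21 action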
#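 Compounds were titrated across several concentrations (up to approximately 40 uM) and incubated 48 hours with HeLa miR-21-FLuc reporter cells (miR-21 target sequence downstream of FLuc, endogenous miR-21). Readout was firefly luciferase luminescence after lytic detection reagent.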
# GLA inh pH 4.5: alpha-galactosidase A (human) inhibition, pH 4.5; P06280; purified enzyme, 4-MU-alpha-Gal fluorescence, pH 4.5; activity change, negative = inhibition, % at 105 µM; 230,000 tested, under 10 active; AID 1467; inconclusive = small, poorly fitted or top-dose-only inhibition, or a rising curve; inactive = flat fitted curve, though single readings scatter; no compound was filed as active;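 note: 0% = full activity with enzyme and -100% = basal without enzyme; dose as in the result columns while the protocol names 77 µM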
# Target sequence (P06280 whole entry, looked up): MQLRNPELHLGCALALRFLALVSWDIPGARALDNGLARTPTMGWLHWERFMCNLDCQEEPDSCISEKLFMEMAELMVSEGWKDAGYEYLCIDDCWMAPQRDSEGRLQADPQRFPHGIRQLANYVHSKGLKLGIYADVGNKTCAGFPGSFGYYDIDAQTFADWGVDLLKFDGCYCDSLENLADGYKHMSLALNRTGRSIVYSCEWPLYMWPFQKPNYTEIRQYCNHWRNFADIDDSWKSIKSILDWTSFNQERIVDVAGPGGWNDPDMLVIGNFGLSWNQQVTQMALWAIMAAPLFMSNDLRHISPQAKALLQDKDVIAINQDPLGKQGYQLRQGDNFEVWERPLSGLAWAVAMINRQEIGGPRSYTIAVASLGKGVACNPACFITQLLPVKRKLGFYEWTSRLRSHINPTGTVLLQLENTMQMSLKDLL
# Rango dissoc inh: prevents RanGTP from dissociating the Rango-importin beta complex; Biochemical FRET Rango-importin beta, RanGTP-induced dissociation; Potency, µM (doses to about 46.1 µM), inactives show at the top dose activity change, negative = inhibition; actives 0.071% (n = 340,000); AID 540253; active means falling FRET ratio curve, often poorly fitted, with flat reads before Ran was added; inconclusive means other falling curves, or compound fluorescence or quenching; inactive means flat or rising ratio curve;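 note: potency is the fitted concentration of half-maximal effect; % of control where 0% means no effect; nearly all actives have a fitted effect of over 45% in size; -100% = wells without RanGTP and RCC1; the record marks most hits as doubtful in a second field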
#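 Quantitative HTS using a FRET biosensor: 0.1 uM Rango, 0.25 uM importin beta, 0.6 uM Ran, 2 mM GTP, 0.2 uM RCC1 final, PBS with DTT, Tween-20 and BSA. Post-read taken 45 min after Ran addition.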
# Starred values were filed as active, the others as inactive; ? = inconclusive; · = no result given; & = joins results of further samples.
# Sample of the layout:
Rango-impB inh	miR-21 FLuc	GLA inh pH 4.5	Rango dissoc inh	compound
3.9%	0%	·	1%	CC(NC(=O)c1cc2cc(F)ccc2[nH]1)c1ccccc1 (stereo not given)
?	-1%	1	6%	O=C(Cn1c(=O)c2sccc2n(Cc2ccc([N+](=O)[O-])cc2)c1=O)NCCc1ccccc1
-4.5%	-2%	-3	2%	CCOC(=O)C1C(=O)NC(N2CCOCC2)=NC1c1ccco1 (stereo not given)
4.3%	2%	·	-12%	O=C(C1=C(O)C(=O)N(CC2CCCO2)C1c1ccccc1F)c1ccco1 (stereo not given)

# This part in full, from the first entry:
Rango-impB inh	miR-21 FLuc	GLA inh pH 4.5	Rango dissoc inh	compound
3.9%	0%	·	1%	CC(NC(=O)c1cc2cc(F)ccc2[nH]1)c1ccccc1 (stereo not given)
?	-1%	1	6%	O=C(Cn1c(=O)c2sccc2n(Cc2ccc([N+](=O)[O-])cc2)c1=O)NCCc1ccccc1
-4.5%	-2%	-3	2%	CCOC(=O)C1C(=O)NC(N2CCOCC2)=NC1c1ccco1 (stereo not given)
4.3%	2%	·	-12%	O=C(C1=C(O)C(=O)N(CC2CCCO2)C1c1ccccc1F)c1ccco1 (stereo not given)
2.3%	·	·	-10%	O=C(c1ccc(=O)[nH]c1)N1CCN(S(=O)(=O)c2ccc3ccccc3c2)CC1
-0.3%	·	·	-8%	CC(=O)/C(=N\Nc1ccccc1)Oc1ccc(Br)cc1
-1.4%	-4%	5	-14%	COC(=O)c1cn(NC(=O)Cc2ccccc2Br)c(=O)c2ccccc12
-3.7%	-2%	·	-15%	COc1cccc2c1cc1c(=O)n(CC(=O)NCc3ccccn3)nc(C)n12
1.8%	-2%	4	-14%	CCOC(=O)c1c(C)cc(C)[nH]c1=O
?	-6%	-4	?	CC1CN(c2nc3ccccn3c(=O)c2/C=C(\C#N)C(N)=O)CC(C)O1 (stereo not given)
-3.7%	0%	·	-5%	CCCSCCCNC(=O)c1ccc(C)c(NC(=O)C2=C(C)OCCS2)c1
0.3%	-2%	-3	-10%	COc1ccc(S(=O)(=O)n2nc(-c3cc(OC)c(OC)c(OC)c3)cc2N)cc1OC
0.7%	-4%	·	-2%	COCCNC(=O)/C(C#N)=C/c1c(N2CCN(c3cccc(Cl)c3)CC2)nc2c(C)cccn2c1=O
6.2%	-2%	-1	?	CC1(C)CC(=O)C=C(NCCN2CCN(C(=O)Nc3ccccc3)CC2)C1
-2.7%	7%	·	-2%	N#Cc1ccccc1NC(=O)CSc1cn[nH]n1
0.3%	-1%	2	26%	COc1ccccc1C(=O)NNC(=O)C(=O)NC(C)C
-1.4%	·	·	-14%	CC(NC(=O)c1ccc(-c2ccccc2)cc1)C(c1ccccc1)N1CCOCC1 (stereo not given)
0.0%	3%	-2	-3%	O=C(C1CCCO1)N(c1cccc(Cl)c1)C1C=CS(=O)(=O)C1 (stereo not given)
-2.0%	-2%	7	4%	Cc1cc(CNC(=O)c2cc(COc3c(F)cccc3F)on2)nn1C
-1.3%	-3%	-5	11%	CCOC(=O)n1c(=O)oc2cc(S(=O)(=O)N3CCCCC3)ccc21
-2.4%	-1%	8	-9%	Cc1ccccc1C(=O)Nc1ccccc1N1CCCCC1
-4.6%	-2%	9	-24%	COC(C)(C)[C@H](O)COc1c2ccoc2cc2oc(=O)ccc12
-2.2%	-3%	·	1%	CC(=O)Nc1ccc(C(=O)NCCN2CCOCC2)cc1
-4.5%	-9%	·	?	Cc1ccc(N)cc1NC(=O)CN1CCOCC1
2.9%	-1%	4	1%	CNCC(=O)N1CCN(c2ncc(C(F)(F)F)cc2Cl)CC1
-2.6%	-1%&3%	·	1%	CCOc1ccccc1CNC(=O)C1CCN(c2nnc(C)c3c(C)n(-c4ccc(C)cc4)nc23)CC1
3.7%	-9%	5	-1%	C=CCNC(=O)Nc1ccc2oc(C)nc2c1
?	0%	6	?	O=C(COC(=O)c1cc(-c2ccco2)nc2ccccc12)NCc1ccccc1
0.5%	-5%	-18	-21%	CC1CC(C)CN(C(=O)CNS(=O)(=O)c2ccc(Br)s2)C1 (stereo not given)
-1.4%	-4%	-12	-1%	CN(C)c1nc(OCCOC(=O)COc2ccc(Cl)cc2Cl)nc(N(C)C)n1
0.8%	-14%	1	21%	C/C(=N/NC(=O)CNC(=O)C(c1ccccc1)c1ccccc1)c1ccco1
?	?	-4	-8%	Cc1ccccc1Oc1cc(-n2ncc(Cl)c(Cl)c2=O)ncn1
-1.2%	0%	4	-10%	CC(C)CN1C(=O)CC(Sc2ccccc2C(=O)O)C1=O (stereo not given)
-1.3%	-3%	7	-6%	COc1ccc(/C=N/NC(=O)c2ccc(Cn3cc([N+](=O)[O-])cn3)o2)c(OC)c1C
-1.9%	0%	·	2%	O=C(COc1ccc(S(=O)(=O)N2CCOCC2)cc1)NCCN1CCOCC1
5.9%	·	·	0%	O=C(Oc1ccccc1)c1ccccc1
?	-34%	-13	14%	Cc1cccc(NC(=S)N/N=C(\c2ccccc2)C(C)C)c1
3.9%	-6%	·	8%	Cc1ccc(/C=N/NC(=O)c2ccc(NC(=O)c3ccc(Cl)cc3)cc2)o1
1.8%	-5%	·	37%	O=C(c1ccc(OC2CCN(Cc3ccc(F)cc3)CC2)cc1)N1CCCC1
0.8%	-2%	4	-10%	Cc1nn(C)c(C)c1CN(C(=O)CCc1nnc(Cc2c[nH]c3ccccc23)o1)C(C)C
?	·	·	-1%	CCOc1ccc(S(=O)(=O)N2CCOCC2)cc1NC(=O)CN1C(=O)NC(C)(c2ccccc2)C1=O (stereo not given)
1.8%	-8%	-2	0%	O=C(O)c1ccc(CSc2nc3ccccc3o2)cc1
-1.0%	1%	·	-16%	C=CCNC(=O)COc1coc(CN2CCN(Cc3ccccc3)CC2)cc1=O
-1.2%	-8%	-3	0%	COc1ccc(Nc2nnc(SC(C(=O)Nc3ccc(OC)c(Cl)c3)c3ccccc3)s2)cc1 (stereo not given)
?	4%	-23	?	COC(=O)c1cc(C(=O)c2cc(F)ccc2O)cn2c(=O)c3c(C)c(C)sc3nc12
-5.2%	2%	-17	12%	CCn1c(=O)cc(OCC(=O)NCC2CCCO2)c2ccccc21 (stereo not given)
0.6%	-1%&6%	·	-5%	CCOc1ccc(NC(=O)NCCN2CCN(c3cccc(C)c3C)CC2)cc1
-5.1%	-2%	2	-6%	CCOc1ccc(CCNC(=O)CSCc2ccc(C)cc2)cc1OCC
0.6%	·	·	34%	O=C(COC(=O)/C=C/c1cccc(Cl)c1)NC1CC1
0.5%	-3%	7	1%	Cc1csc(C2=C(O)CN(c3ccc4c(c3)OCCOCCOCCOCCO4)C2=N)n1
4.9%	-9%	-6	3%	C=CCN1C(=O)C(Cc2ccc(SC(F)F)cc2)SC1=Nc1ccc(C(=O)O)cc1 (stereo not given)
-0.6%	-2%	·	10%	Cc1ccc(C(C)(O)CS(=O)(=O)Cc2ccccc2Cl)cc1 (stereo not given)
-2.1%	-5%	4	5%	O=C(CSc1ncn[nH]1)NCCOc1ccccc1
-3.0%	-13%	·	-6%	CCc1cc(=O)oc2c3c(cc(OCC(=O)NCCCn4ccnc4)c12)OC(C)(C)CC3
2.9%	-3%	-1	-26%	COc1ccccc1C(=O)N(NC(=O)Oc1ccccc1)C(C)(C)C
4.4%	-3%	3	-1%	COc1ccc(NC(=O)C(NC(=O)CC2NC(=O)NC2=O)c2ccccc2)cc1 (stereo not given)
-0.8%	-2%	-1	2%	COc1ccc(OCCOC(=O)c2ccc(-n3cnnn3)cc2)cc1
0.0%	-34%	-14	0%	CN(C)CCN(C(=O)c1ccc(S(=O)(=O)N(C)c2ccccc2)cc1)c1nc2cc3c(cc2s1)OCCO3
0.0%	0%	3	6%	O=C1c2ccccc2C(=O)N1OCCOCCOCCBr
0.5%	-32%	·	10%	CCCC(=O)N1CCN(c2nc3ccccc3s2)CC1

# Further records follow:
Rango-impB inh	miR-21 FLuc	GLA inh pH 4.5	Rango dissoc inh	compound
-4.2%	·	·	7%	CCOC(=O)c1cc(-c2ccccc2)nn1CC1CC(c2cccc([N+](=O)[O-])c2)=NO1 (stereo not given)
5.7%	9%	1	-30%	COc1cccc(C(=O)N2N=C(c3ccccn3)CC2(O)C(F)(F)F)c1 (stereo not given)
-1.2%	-2%	4	-11%	CCOC(=O)C(Cc1ccccc1)NC(=O)CNC(C)=O (stereo not given)
0.4%	?	0	-4%	C[C@H]1O[C@@H](O[C@H]2[C@@H](O)C[C@H](O[C@H]3[C@@H](O)C[C@H](O[C@H]4CC[C@@]5(C)[C@H](CC[C@@H]6[C@@H]5C[C@@H](O)[C@]5(C)[C@@H](C7=CC(=O)OC7)CC[C@]65O)C4)O[C@@H]3C)O[C@@H]2C)C[C@H](O)[C@@H]1O
1.3%	1%	·	20%	Cc1occc1C(=O)N(C)CC1CCCN(CCc2ccccc2F)C1 (stereo not given)
3.8%	-12%	-19	?	CCN(C(C)=O)c1nc(CSc2nnc(NC(C)C)s2)cs1
-0.7%	0%	·	-18%	COCCCNC(=O)Cn1nc(-c2cccc(OC)c2)ccc1=O
-2.6%	·	·	-5%	CCCCC[C@@H]1C=C(C(=O)O)[C@H](c2cccc(C)c2)N1S(=O)(=O)c1ccc(C)cc1
-3.4%	-2%	4	-1%	CCOC(=O)COc1ccc(C(=O)CC)cc1OC
0.4%	-57%	-2	-12%	Cc1ccc(Nc2nc(-c3ccccc3)c(CC(=O)O)s2)cc1
?	-12%	-15	8%	COc1cc(OC)cc(-c2cc(NC(C)=O)n[nH]2)c1
-5.6%	-18%	·	0%	COc1ccccc1OC(C)C(=O)Nc1ccc2c(c1)OCCO2 (stereo not given)
1.4%	1%	5	7%	O=S1(=O)CCN(C(CO)c2ccccc2)CC1 (stereo not given)
0.3%	-1%	-5	10%	C=CCOC(=O)C1=C(C)N=C2SCCC(=O)N2C1c1cccs1 (stereo not given)
-0.5%	-38%	5	5%	S=C(NCCc1ccccc1)NC1CCCCCC1
-0.8%	-43%	-4	-4%	CC(=O)c1cc2c(=O)c3cc(C)ccc3oc2nc1C
0.6%	-6%	1	4%	O=C(N/N=C\c1ccc(OC(=O)c2ccco2)cc1)c1ccc(Cl)cc1
-6.5%	-6%	0	4%	COc1ccc(OC)c(S(N)(=O)=O)c1
0.3%	28%	6	3%	FC(F)(F)c1cnc(C(c2ccccn2)c2ncn[nH]2)c(Cl)c1 (stereo not given)
-0.2%	23%	6	-4%	COc1ccc(C(NC(=O)C(C)C)c2c(O)ccc3ccccc23)cc1 (stereo not given)
-0.3%	-11%	·	11%	CCN(CC)S(=O)(=O)c1ccc(NC(=O)c2cnccn2)cc1
2.1%	2%	·	0%	COc1ccc(-c2ccc(NS(=O)(=O)c3cccc([N+](=O)[O-])c3)cc2)nn1
1.1%	-11%	5	1%	COc1ccc(OC)c(C(=O)c2ccccc2)c1
-1.1%	-1%	0	13%	CCc1ccc(C(C)NC(=O)C2(C)CC2(Br)Br)cc1 (stereo not given)
1.9%	0%	5	7%	Cc1c(NC(=O)CCSc2ccc(Cl)cc2)c(=O)n(-c2ccccc2)n1C
-3.0%	-6%	-1	-13%	CCSc1nc2ccccc2c(=O)n1C1CCOC(C)(C)C1 (stereo not given)
-2.5%	-4%	-3	-2%	CCOC(=O)c1c(C)nc2ccc(Cl)cc2c1-c1ccccc1
3.3%	-17%	2	-15%	CCCc1nnc(NC(=O)CSc2nc3ccccc3[nH]2)s1
-0.3%	·	·	13%	Cc1ccc(NC(=O)CN2C(=O)NC3(CCCC3)C2=O)nc1
1.8%	-1%	-12	-1%	Cc1nc2cc(NC(=O)Nc3ccc(N4CCOCC4)cc3)ccc2n1C
-1.0%	·	·	19%	Cc1cc(Br)ccc1NC(=O)CNC(=O)Cc1ccc(S(=O)(=O)N2CCOCC2)s1

# Some values from above.
# `Cc1cccc(NC(=S)N/N=C(\c2ccccc2)C(C)C)c1` in Rango dissoc inh → 14%
# `O=C(O)c1ccc(CSc2nc3ccccc3o2)cc1` in Rango dissoc inh → 0%
# `COC(C)(C)[C@H](O)COc1c2ccoc2cc2oc(=O)ccc12` in GLA inh pH 4.5 → 9
# `Cc1ccc(NC(=O)CN2C(=O)NC3(CCCC3)C2=O)nc1` in Rango dissoc inh → 13%

# The list is partial. The share of hits here may be higher or lower than overall.
